High-throughput results (PubChem)
Menin-MLL FL inh – displaces fluorescein MLL peptide from human menin; 290,000 tested, under 10 active; AID 1766; Fluorescence polarization, fluorescein-MLL peptide displacement from menin; FP activity change, % at 61.4 µM; inconclusive = falling polarisation curve, or a change in total fluorescence; inactive = total fluorescence flat and polarisation flat or rising; no compound was filed as active; the % refers to the polarisation; negative = inhibition;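 note: % of control where 0% means no effect; inhibitors lower the polarisation; unlabelled MLL peptide was the positive control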
ClpP mod – qHTS Assay for Activators of ClpP; purified B. subtilis ClpP, FRET peptide cleavage, 20 min; Potency, µM (top dose mostly 57.5 µM), inactives show at the highest dose activity change, negative = active; 340,000 tested, 1.9% active; AID 651965, 2013; active = well fitted falling curve with a large enough effect; inconclusive = small, poorly fitted or top-dose-only effect; inactive = no such curve, though single readings can be large or run the other way; note: potency is the fitted concentration of half-maximal effect; the source files actives as falling curves though it sought activators and does not explain the sign; nearly all actives have a fitted effect of over 65% in size; many hits overshoot -100%
Target sequence (P80244 whole entry, looked up): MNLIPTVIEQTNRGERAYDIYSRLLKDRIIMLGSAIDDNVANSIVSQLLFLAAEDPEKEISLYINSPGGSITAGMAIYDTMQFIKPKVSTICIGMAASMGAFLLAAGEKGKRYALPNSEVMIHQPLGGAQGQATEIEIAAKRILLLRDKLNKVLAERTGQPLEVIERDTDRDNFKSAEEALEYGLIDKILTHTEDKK
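FRET quenching reversal measured ClpP activation: 10 microg/mL B. subtilis ClpP at pH 8 with the FRET-FV decapeptide, read at 430 nm after 320 nm excitation. The 20-min minus 0-min signal was scaled between DMSO/no-enzyme wells and ADEP (5.8 microM final).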
gsp antag – antagonizes gsp, the McCune-Albright syndrome mutation. gsp-mutant cells, cAMP HTRF, 30 min; control for the full effect not named in the record. Potency, µM (series often up to 76.9 µM), for inactives: top-dose activity change, negative = inhibition, actives largely listed as inhibitors. 340,000 tested, 0.4% active. AID 624288; active = falling curve of any shape with a large fitted effect; inconclusive = falling curve, mostly with a smaller effect; inactive = flat or rising curve; cell line not stated here;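 note: intracellular cAMP measured with PDE inhibitor Ro 20-1724 present during compound exposure; potency is the fitted concentration of half-maximal effect; % is set by controls: 0 for no effect and ±100 for the full control effect; nearly all actives have a fitted effect of over 65% in size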
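Cells in G418 medium, seeded 16-24 h, 37C; buffer exchange to DPBS + 1 mM CaCl2, 0.5 mM MgCl2, 0.05% BSA; cpds in DMSO + […] (300 uM stock), 30 min 37C; HTRF cAMP detection.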
TRPML1 agonist – agonists of human TRPML1 channel. AID 624414. Q9GZU1. activation, % (no concentration beside the values). 410,000 tested, 0.12% active. TRPML1-expressing cells, Ca2+ dye fluorescence, FDSS; host cell line not named in the record; reference of the full effect not given here; in the data active = activation above about 50%; inconclusive = about 30% to 50%; inactive = below about 30%; note: 0% is about no effect; the text of the record puts the active cut at 80%
Target sequence (Q9GZU1 whole entry, looked up): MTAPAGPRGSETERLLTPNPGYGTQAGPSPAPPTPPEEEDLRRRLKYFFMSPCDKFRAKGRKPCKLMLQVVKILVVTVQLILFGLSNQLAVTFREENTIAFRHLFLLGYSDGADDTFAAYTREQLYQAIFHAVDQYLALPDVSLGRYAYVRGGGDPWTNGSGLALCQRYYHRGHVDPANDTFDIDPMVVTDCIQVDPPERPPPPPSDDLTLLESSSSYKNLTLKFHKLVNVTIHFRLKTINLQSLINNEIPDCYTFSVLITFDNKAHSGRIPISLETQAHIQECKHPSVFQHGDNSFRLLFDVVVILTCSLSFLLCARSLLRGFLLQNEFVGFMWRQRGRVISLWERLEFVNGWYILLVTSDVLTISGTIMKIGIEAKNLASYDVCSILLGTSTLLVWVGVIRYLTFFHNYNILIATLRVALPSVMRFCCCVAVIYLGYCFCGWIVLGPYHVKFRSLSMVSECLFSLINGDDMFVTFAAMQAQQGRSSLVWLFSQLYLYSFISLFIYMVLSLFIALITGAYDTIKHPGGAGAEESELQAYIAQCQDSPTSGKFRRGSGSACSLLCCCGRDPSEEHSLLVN
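Kinetic FDSS Ca2+ read in Tet-induced TRPML1-DL cells (ABD Ca8 dye plus quencher, 45-90 min RT loading): baseline, then compound, then 110 s agonist window; EC80 agonist 54-4 at 4uM final added afterwards for a 110 s antagonist window.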
TRPML1 blocker – human mucolipin-1 channel inhibition. 390,000 tested, 0.02% active. TRPML1-inducible cells, Ca2+ dye fluorescence, FDSS; hits give low values; inhibition of EC80 agonist-evoked calcium signal. Q9GZU1. activity change, negative = inhibition, % (no concentration beside the values). AID 624415; in the data active means activity change below about -50%; inconclusive means about -30% to -50%; inactive means above about -30%;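 note: stimulus is agonist 54-4 at its EC80 concentration; % is set by controls: 0 for no effect and ±100 for the full control effect; compound concentration not given in the record; the text of the record puts the active cut at -80%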
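Tet-induced TRPML1-DL cells loaded with Ca8 no-wash calcium dye were read kinetically on FDSS. Compound addition was followed by EC80 agonist 54-4 (4 uM final); inhibition was read over 110 s.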
gsp agonist – activates gsp, the McCune-Albright syndrome mutation | gsp mutant cells, cAMP HTRF, 30 min; control for the full effect not named in the record | Potency, µM (titrated, usually from 76.9 µM), inactives show top-dose activation (cAMP increase), usual class: activators | 340,000 tested, 0.13% active; active = well fitted activation curve with a large enough effect; inconclusive = small, poorly fitted or top-dose-only effect, or another doubt; inactive = no such curve, though single readings can be large or run the other way; cell line not stated here;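 note: phosphodiesterase inhibitor Ro 20-1724 added with compounds to block cAMP breakdown; potency is the fitted concentration of half-maximal effect; nearly all actives have a fitted effect of over 60% in size; about a fifth of the inactives were tested at one dose only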
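Cells stably selected in G418 were plated at 2000/well, grown 16-24 hr, then given compounds in DMSO with the PDE inhibitor […] (300 uM solution added) for 30 min at 37C; cAMP was read by HTRF.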
* = called active by the depositor; ? = inconclusive; . = no result given; [ ] = remark or other dose. Random draw from the library; overall some 2.1% were active at least once.

Results follow in this order: TRPML1 agonist | ClpP mod | Menin-MLL FL inh | TRPML1 blocker | gsp agonist | gsp antag
> Cc1ccnc(NC(=O)c2ccc3c(c2)C(=O)N(CCC(C)C)C3=O)c1
→ 1.0 | 0.6% | . | 1.8 | 0.5% | 30.5%
> COc1ccc(-c2cn3cccnc3n2)cc1NC(=O)c1ccc(Br)o1
→ -0.6 | ? | 1.1 | -2.0 | ? | -13.0%
> COc1ccc(-c2nc(Cn3c(SCc4ccc(C)cc4)nc4cccnc43)c(C)o2)cc1OC
→ 1.3 | -6.0% | . | 5.4 | . | .
> Cc1cc(Cl)ccc1NC(=S)NCc1ccccc1
→ -1.2 | -1.3% | 1.1 | 4.1 | -27.2% | -13.9%
> COC(=O)c1ccc2c(=O)n(Cc3ccc(C(=O)NC4CCCC4)cc3)c(=S)[nH]c2c1
→ -0.2 | -1.0% | -0.4 | -14.2 | -2.4% | 21.3%
> C#CCOCCOCCOCCNc1nc(N2CCN(C(=O)[C@H]([C@@H](C)CC)n3cc(CCCN=C(N)N)nn3)CC2)nc(N2CCN(C(=O)[C@H](CCCCN)n3cc(CCCC)nn3)CC2)n1
→ -0.2 | 0.5% | 4.2 | -17.8 | ? | 17.2%
> CCOc1ccc(CCNC(=O)c2cnc3sc(N4CCC(C)CC4)nn3c2=O)cc1
→ -0.9 | -15.1% | . | -9.4 | . | .
> COc1ccc(-c2nc3ccccc3c(=O)n2NC(=O)Cc2ccccc2)cc1
→ -0.8 | 1.2% | 0.0 | 14.6 | 14.1% | 12.3%
> CCOC(=O)c1c(S(=O)(=O)N2CCN(c3cccc(C(F)(F)F)c3)CC2)c(C)n(C)c1C
→ -0.7 | 2.6% | . | -14.2 | . | .
> CC(=O)Nc1ccc(S(=O)(=O)Oc2ccc(Br)cc2C(=S)N2CCOCC2)cc1
→ 0.5 | -1.3% | . | 1.7 | -11.0% | -9.0%
> COc1ccc(/C=C(/NC(=O)c2ccc(C)cc2)C(=O)NCc2ccncc2)cc1
→ -0.5 | -1.4% | . | 2.9 | -18.9% | -0.8%
> CN1C2=NCCN2C(=O)c2cc(Cl)ccc21
→ 0.3 | . | 2.0 | -4.9 | -25.3%[15.4 µM] | 7.7%
> Cn1c(SCc2nnc(-c3ccc(F)cc3)o2)nnc1C1COc2ccccc2O1 (centres undefined)
→ 2.4 | -1.8% | 1.1 | 22.7 | 15.3% | 4.7%
> CC(=O)c1sc2nc(-c3cccs3)cc(C(F)(F)F)c2c1N
→ ? | -8.5% | ? | -3.9 | ? | 10.9%
> COc1ccc(-c2nn(-c3ccccc3)cc2/C=C2/SC(=S)N(CCC(=O)O)C2=O)c(C)c1
→ -0.2 | . | 8.4 | 39.9 | -4.2% | 31.6µM*
> Cc1ccc(S(=O)(=O)NCC(=O)OCc2nnc(-c3ccccc3)o2)cc1C
→ 0.0 | -2.7% | -1.3 | -6.2 | ? | -11.8%
> N#CCCCCn1ccc(NC(=O)c2ccc(Cl)cc2O)n1
→ -1.0 | -0.9% | . | 5.0 | -2.5%[15.4 µM] | ?
> CC(=O)c1cccc(NC(=O)/C(=C\c2cccnc2)NC(=O)c2ccccc2)c1
→ -0.9 | . | 2.1 | 37.1 | -2.4%[15.4 µM] | .
> CCOc1cc(N2CCOCC2)c(OCC)cc1NC(=O)[C@H](C)NC(=O)c1ccco1
→ -0.5 | -10.8% | -15.3 | 17.7 | -6.4%[15.4 µM] | -7.1%
> O=C(c1ccccc1)c1ccc(OCC(O)CN2CCN(Cc3ccccc3)CC2)cc1 (centres undefined)
→ -1.1 | -2.7% | 2.0 | 16.0 | -10.9% | 2.8%
> COc1cccc(-c2cc(C(=O)N3C(C)CCCC3C)no2)c1 (centres undefined)
→ 1.7 | 1.2% | 1.3 | 87.1 | 14.9% | -9.7%
> COc1ccc(NC(C)=O)cc1NC(=O)C1CCCN1C(=O)c1cccs1 (centres undefined)
→ -0.2 | 0.1% | . | 27.2 | 6.3% | 6.9%
> CC(=O)N1N=C(c2ccco2)CC1c1ccco1 (centres undefined)
→ -0.1 | 0.9% | -0.4 | -12.9 | 0.0%[15.4 µM] | -7.7%
> CC(C)[C@H](NC(=O)c1ccccc1)C(=O)OCC(=O)Nc1ncc(Cl)cc1Cl
→ 1.3 | 1.8% | . | 5.7 | -45.7%[inhibitor] | -1.4%
> CCOc1cc(N2CCOCC2)c(OCC)cc1NC(=O)CCC1CCCC1
→ -1.2 | 0.4% | -0.5 | -6.6 | 18.9% | 0.7%
> Cc1cccc(N2CCN(S(=O)(=O)c3cc(-c4cc(C)no4)ccc3C)CC2C)c1 (centres undefined)
→ -0.6 | -20.2% | -1.9 | 4.8 | ? | 4.0%
> CCCc1cc(C(=O)N/N=C/c2cccn2C)cs1
→ 1.1 | 0.0% | . | 50.8 | 0.7%[15.4 µM] | -4.2%
> Cc1ccnc(NS(=O)(=O)c2ccc(NC(=O)C3COc4ccccc4O3)cc2)n1 (centres undefined)
→ 0.4 | 0.5% | -0.6 | -3.6 | -11.7% | -21.3%
> CCC(CC)C(=O)Nc1nnc(S(=O)(=O)N(CC)c2ccc(OC)cc2)s1
→ -0.8 | 0.1% | -8.0 | -3.2 | 10.3%[15.4 µM] | 20.0%
> O=c1c2ccccc2c(C=Nc2ccc(O)cc2)c(O)n1-c1nccs1
→ 0.4 | . | 5.8 | -2.3 | -1.2%[15.4 µM] | -7.8%
> O=S(=O)(Nc1cc(C(F)(F)F)ccc1N1CCOCC1)c1ccc2ccccc2c1
→ ? | 0.0% | 4.2 | -1.4 | 1.7%[15.4 µM] | -9.8%
> CS(=O)(=O)c1cnc(-c2ccccc2)nc1Oc1ccc(F)cc1
→ 0.4 | -2.3% | -4.8 | 6.0 | -6.1% | 22.7%
> CC1CCN(CCCNC(=O)C2CC(=O)N(C3CCCCCC3)C2)CC1 (centres undefined)
→ 0.4 | -2.1% | -0.7 | 1.6 | 6.6% | 5.2%
> CCCCCCSc1ccc(-c2nc3cnccn3c2NCCCC)cc1
→ 0.4 | -30.0% | . | 1.8 | . | 15.5%
> COc1ccc(-c2ccc(-c3noc(-c4ccco4)n3)c(OC)n2)cc1
→ -0.8 | 28.2µM* | 2.3 | -0.6 | -3.8% | -1.9%
> S=c1[nH]nc(-c2ccco2)n1/N=C/C=C/c1ccccc1
→ 0.3 | 4.8% | 0.5 | 0.9 | -50.0% | -18.0%
> COc1ccc(OCCN2CCOCC2)cc1
→ 0.3 | -2.5% | 0.9 | 4.1 | 0.5% | 7.0%
> Cc1nnc(-c2cnn(C)c2N)n1Cc1ccc2c(c1)OCO2
→ -0.2 | -1.4% | 0.4 | -5.9 | 8.9% | 10.4%
> COc1cc(NC(=O)N[C@@H](Cc2ccccc2)C(=O)O)cc(OC)c1
→ -1.1 | 1.1% | 0.6 | 13.5 | -1.1%[15.4 µM] | -3.7%
> Cc1ccc(NC(C)C(=O)N/N=C/c2ccc([N+](=O)[O-])s2)cc1 (centres undefined)
→ -0.3 | . | 3.0 | -5.8 | -7.2%[15.4 µM] | -2.3%
> O=C(CCCCCCCC(=O)N1CCCC1)N1CCCC1
→ 0.1 | . | . | -6.1 | 28.1% | -4.5%
> O=C(CN1CCCC1)N1c2ccccc2Sc2ccccc21
→ -0.6 | -4.0% | -3.2 | -12.1 | 13.9% | 9.5%
> CCC(C)(C)NC(=O)C(c1ccncc1)N(C(=O)c1sc(C)nc1C)c1ccc(F)cc1 (centres undefined)
→ -0.6 | 0.0% | -0.9 | 5.4 | -62.1%[inhibitor] | 4.8%
> C(COC1CC2CC1C1C2CC2OC21)OC1CC2CC1C1C2CC2OC21 (centres undefined)
→ 0.0 | -2.9% | . | -14.5 | ? | 4.9%
> Cc1ccc(-c2nn(-c3ccccc3)cc2NC(=O)CCl)cc1
→ 0.3 | -5.1% | -2.8 | -2.9 | -69.4%[inhibitor] | ?

Brought forward from above: 4 compounds, then new ones.
Results follow in this order: TRPML1 agonist | ClpP mod | Menin-MLL FL inh | TRPML1 blocker | gsp agonist | gsp antag
> O=C(CN1CCCC1)N1c2ccccc2Sc2ccccc21
→ -0.6 | -4.0% | -3.2 | -12.1 | 13.9% | 9.5%
> CCC(C)(C)NC(=O)C(c1ccncc1)N(C(=O)c1sc(C)nc1C)c1ccc(F)cc1 (centres undefined)
→ -0.6 | 0.0% | -0.9 | 5.4 | -62.1%[inhibitor] | 4.8%
> C(COC1CC2CC1C1C2CC2OC21)OC1CC2CC1C1C2CC2OC21 (centres undefined)
→ 0.0 | -2.9% | . | -14.5 | ? | 4.9%
> Cc1ccc(-c2nn(-c3ccccc3)cc2NC(=O)CCl)cc1
→ 0.3 | -5.1% | -2.8 | -2.9 | -69.4%[inhibitor] | ?
> S=C(NCc1ccccc1)NCc1ccc(Cl)cc1
→ 0.0 | -1.2% | . | 34.7 | -13.0% | 6.2%
> Cc1ccc(S(=O)(=O)N2CCC(C(=O)N3CCC[C@H]3C(=O)NCc3ccco3)CC2)cc1
→ -0.2 | -10.1% | -1.4 | 16.2 | -87.4%[inhibitor] | -6.6%
> Cc1cc(C(=O)Nc2cccc3c2O[C@@H](CN(C)S(=O)(=O)c2ccccc2)[C@H](C)CN([C@@H](C)CO)C3=O)n(C)n1
→ -0.8 | -0.5% | . | -11.9 | . | 10.0%
> CC1Cc2ccccc2N1c1ncnc2nc[nH]c12 (centres undefined)
→ 0.4 | -3.2% | 3.9 | -4.5 | ? | -4.3%
> CCc1ccc(S(=O)(=O)c2cn(C)c3cc(N4CCCCC4C)c(F)cc3c2=O)cc1 (centres undefined)
→ 0.7 | 178.9% | . | -3.4 | . | .
> COc1ccc(NS(=O)(=O)c2ccc(O)c(NS(=O)(=O)c3ccc(NC(C)=O)cc3)c2)cc1
→ -0.5 | -1.1% | . | -15.7 | 0.7% | 9.7%
> CN(C)c1ccc(C=C2C(=O)OC3(CCCC3)OC2=O)cc1
→ 0.2 | . | ? | -10.8 | -2.5% | -10.8%
> CC1=CC(c2ccc(Cl)cc2)n2nc(NC(=O)c3ccccc3)nc2N1 (centres undefined)
→ 0.2 | ? | 2.2 | 12.0 | -10.6% | -16.7%
> CCOC(=O)C1CCN(C(=O)CN(c2cc(OC)ccc2OC)S(=O)(=O)c2ccccc2)CC1
→ -0.8 | 1.7% | 4.4 | -10.5 | -13.1% | -6.0%
> CC(C)(C)c1ccc(C(=O)NCC(c2cccs2)S(=O)(=O)c2ccc(F)cc2)cc1 (centres undefined)
→ 3.4 | -2.5% | . | -1.8 | . | .
> CCC(=O)N1CCc2cc(S(=O)(=O)NCCC(=O)Nc3ccc(C)cc3)ccc21
→ -0.4 | -2.0% | . | 3.4 | . | .
